From PubChem BioAssay
ID4 binder = ID4 (human) binding. hit rate 1.2% among 31,000. small molecule microarray, Flag-ID4 binding, fluorescence F/B. P47928. calls only;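 active = spot signal over background at p below 0.07 in all four prints; compounds were printed on slides so no solution concentration is given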;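 note: a binder raises fluorescence above local background on the spot; about 2 pmol printed per array spot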
Target sequence (P47928 whole entry, looked up): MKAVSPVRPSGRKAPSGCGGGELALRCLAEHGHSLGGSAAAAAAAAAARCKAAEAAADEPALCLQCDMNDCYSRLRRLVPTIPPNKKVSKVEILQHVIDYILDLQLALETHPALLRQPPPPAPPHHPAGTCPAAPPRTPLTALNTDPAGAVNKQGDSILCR
c-Myc SMM = binders of human c-Myc; small molecule microarray, His-c-Myc binding, anti-His fluorescence; calls only; hit rate 1.5% among 17,000; AID 624141;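 active = spot fluorescence over background with P-value below 7% in all four replicate spots, showing protein binding; compounds were printed on slides so no solution concentration is given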;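 note: score is binary with 100 for all four spots passing and 0 otherwise; about 2 pmol printed per array spot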
p53 mut binder = binds human mutant p53 on microarray; small molecule microarray binding, anti-GST fluorescence; calls only; hit rate 0.4% among 17,000; AID 624136;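 active = compounds whose four printed spots each glow above background more than chance allows, each with a p-value under 7%; compounds were printed on slides so no solution concentration is given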;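 note: about 2 pmol printed per array spot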
STAT3 binder = binds human STAT3 on microarray. P40763. Small molecule microarray, His-STAT3 binding, anti-His fluorescence. calls only. hit rate 0.2% among 17,000. AID 624138;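 active = compounds whose four printed spots each show fluorescence over background unusually high for their array block, chance value under 7%; compounds were printed on slides so no solution concentration is given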;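 note: about 2 pmol printed per array spot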
Target sequence (P40763 whole entry, looked up): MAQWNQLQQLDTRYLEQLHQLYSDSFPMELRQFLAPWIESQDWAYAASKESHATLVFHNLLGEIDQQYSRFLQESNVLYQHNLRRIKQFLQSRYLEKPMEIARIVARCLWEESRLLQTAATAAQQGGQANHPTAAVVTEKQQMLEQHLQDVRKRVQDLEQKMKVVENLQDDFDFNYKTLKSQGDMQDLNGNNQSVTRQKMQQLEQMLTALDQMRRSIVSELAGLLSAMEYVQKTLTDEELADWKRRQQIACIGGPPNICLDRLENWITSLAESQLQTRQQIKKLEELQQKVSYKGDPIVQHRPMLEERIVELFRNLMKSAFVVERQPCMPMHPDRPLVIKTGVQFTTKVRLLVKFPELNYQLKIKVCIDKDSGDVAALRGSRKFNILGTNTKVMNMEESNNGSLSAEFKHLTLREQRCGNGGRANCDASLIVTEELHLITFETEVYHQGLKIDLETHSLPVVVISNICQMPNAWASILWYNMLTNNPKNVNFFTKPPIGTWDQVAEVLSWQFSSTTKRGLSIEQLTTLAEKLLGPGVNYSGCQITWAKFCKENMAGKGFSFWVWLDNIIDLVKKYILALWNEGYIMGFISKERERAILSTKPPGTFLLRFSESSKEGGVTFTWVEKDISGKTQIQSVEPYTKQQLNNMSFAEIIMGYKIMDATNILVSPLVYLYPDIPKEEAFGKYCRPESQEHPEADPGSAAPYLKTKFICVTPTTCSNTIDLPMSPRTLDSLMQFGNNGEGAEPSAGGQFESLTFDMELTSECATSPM
Calls only; i = inactive; / = no result given; + = active, no number.

Start of the listing, in advance, 4 compounds:
No. | molecule | ID4 binder | c-Myc SMM | p53 mut binder | STAT3 binder
1 | Cc1ccc2c(c1)c1c(n2CC(O)CO)C(=O)CCC1 (configuration not stated) | i | i | i | i
2 | COCCCNC(=O)[C@@]1(C)c2ccccc2C(=O)N(Cc2cc(C(F)(F)F)cc(C(F)(F)F)c2)[C@H]1c1ccc(CO)cc1 | i | i | i | i
3 | CCOC(=O)CSc1nc(N)nc(C)c1Cl | i | i | i | i
4 | CC1=CC(/C=C(\C)CCC(O)C(O)/C=C/C(=O)O)C2(O)C(=O)NC(CC(C)C)C2C1C (configuration not stated) | i | i | i | i

The list itself, previewed entries included:
No. | molecule | ID4 binder | c-Myc SMM | p53 mut binder | STAT3 binder
1 | Cc1ccc2c(c1)c1c(n2CC(O)CO)C(=O)CCC1 (configuration not stated) | i | i | i | i
2 | COCCCNC(=O)[C@@]1(C)c2ccccc2C(=O)N(Cc2cc(C(F)(F)F)cc(C(F)(F)F)c2)[C@H]1c1ccc(CO)cc1 | i | i | i | i
3 | CCOC(=O)CSc1nc(N)nc(C)c1Cl | i | i | i | i
4 | CC1=CC(/C=C(\C)CCC(O)C(O)/C=C/C(=O)O)C2(O)C(=O)NC(CC(C)C)C2C1C (configuration not stated) | i | i | i | i
5 | C[C@@H]1CN([C@@H](C)CO)C(=O)c2cccc(NC(=O)c3ccc(-c4nccs4)cc3)c2O[C@H]1CN(C)CC1CC1 | i | i | i | i
6 | Clc1ccc2nc(SCc3csc(Nc4ccccc4)n3)oc2c1 | i | i | i | i
7 | C[C@@H]1CN([C@H](C)CO)C(=O)c2cc(NS(=O)(=O)c3ccccc3)ccc2O[C@@H](C)CCCCO[C@@H]1CN(C)C(=O)CCCN(C)C | i | i | i | i
8 | COc1cc2c(cc1OC)CN(C(=O)[C@H]1[C@@H]3C(=O)O[C@@H](c4ccccc4)[C@@H](c4ccccc4)N3[C@@H](c3ccccc3OCCO)[C@]13C(=O)Nc1ccc(C#CCNC(N)=O)cc13)CC2 | i | i | i | i
9 | Cc1noc(C)c1S(=O)(=O)N(C)C[C@@H]1OCCCC[C@@H](C)Oc2ccc(NC(=O)CCCN(C)C)cc2C(=O)N([C@H](C)CO)C[C@@H]1C | i | i | i | i
10 | C[C@H]1CN([C@@H](C)CO)C(=O)c2cccc(NC(=O)Nc3cccc4ccccc34)c2O[C@H]1CN(C)C(=O)Nc1ccc(F)cc1 | i | i | i | i
11 | COc1ccc(S(=O)(=O)Nc2ccc3c(c2)C(=O)N([C@@H](C)CO)C[C@@H](C)[C@@H](CN(C)S(=O)(=O)c2cccs2)O3)cc1 | i | i | i | i
12 | C[C@H](CO)N1C[C@H](C)[C@H](CN(C)C(=O)NC2CCCCC2)Oc2ncc(C#Cc3ccccc3)cc2C1=O | i | i | i | i
13 | C[C@@H]1CN([C@@H](C)CO)C(=O)c2cccc(N(C)C)c2O[C@@H]1CN(C)C(=O)Nc1cccc2ccccc12 | i | i | i | i
14 | C[C@@H]1CN([C@H](C)CO)C(=O)c2cc(NC(=O)Nc3ccc(F)cc3)ccc2O[C@@H](C)CCCCO[C@H]1CN(C)C | i | i | i | i
15 | C[C@@H]1CN([C@H](C)CO)C(=O)c2cccc(NS(=O)(=O)c3cn(C)cn3)c2O[C@@H]1CN(C)C | i | i | i | i
16 | CN1CC(C(=O)NC2(C)OC3(O)C4CCCN4C(=O)C(Cc4ccccc4)N3C2=O)CC2c3cccc4[nH]cc(c34)CC21 (configuration not stated) | i | i | i | i

Entries from the list above that contain an aryl thioether with sulfur outside any ring:
No. | molecule | ID4 binder | c-Myc SMM | p53 mut binder | STAT3 binder
3 | CCOC(=O)CSc1nc(N)nc(C)c1Cl | i | i | i | i
6 | Clc1ccc2nc(SCc3csc(Nc4ccccc4)n3)oc2c1 | i | i | i | i

Whole records as entered above. Values in the order: ID4 binder, c-Myc SMM, p53 mut binder, STAT3 binder
C[C@H](CO)N1C[C@H](C)[C@H](CN(C)C(=O)NC2CCCCC2)Oc2ncc(C#Cc3ccccc3)cc2C1=O in the list: i, i, i, i
C[C@@H]1CN([C@H](C)CO)C(=O)c2cc(NC(=O)Nc3ccc(F)cc3)ccc2O[C@@H](C)CCCCO[C@H]1CN(C)C in the list: i, i, i, i

Next structures
No. | molecule | ID4 binder | c-Myc SMM | p53 mut binder | STAT3 binder
17 | C[C@@H]1CCCCO[C@@H](CN(C)C(=O)c2ccncc2)[C@@H](C)CN([C@@H](C)CO)C(=O)c2cc(NC(=O)CCC(F)(F)F)ccc2O1 | i | i | i | i
18 | Cc1noc(C)c1NC(=O)N(C)C[C@@H]1Oc2ccc(NC(=O)Cn3cnnn3)cc2C(=O)N([C@H](C)CO)C[C@H]1C | i | i | i | i
19 | Cc1noc(C)c1NC(=O)Nc1ccc2c(c1)C(=O)N([C@H](C)CO)C[C@H](C)[C@@H](CN(C)C(=O)NC1CCCCC1)O2 | i | i | i | i
20 | COc1ccccc1-c1nnc(SCC(=O)Nc2ccccc2-c2ccccc2)n1C | i | i | i | i
21 | Cc1noc(C)c1NC(=O)N(C)C[C@@H]1OCCCC[C@@H](C)Oc2ccc(NC(=O)CCC(F)(F)F)cc2C(=O)N([C@H](C)CO)C[C@H]1C | i | i | i | i
22 | C[C@@H]1CCCCO[C@@H](CN(C)C(=O)C2CCCCC2)[C@@H](C)CN([C@@H](C)CO)C(=O)c2cc(NC(=O)c3ccccc3)ccc2O1 | / | i | i | i
23 | CC(CCO)Nc1nc2c([nH]1)c(=O)n(C)c(=O)n2C (configuration not stated) | i | i | i | i
24 | N#CCc1ccc(NC(=O)Cc2ccccc2[N+](=O)[O-])cc1 | i | i | i | i
25 | C[C@@H]1CCCCO[C@H](CN(C)C)[C@@H](C)CN([C@H](C)CO)C(=O)c2cc(NC(=O)CCC(F)(F)F)ccc2O1 | i | i | i | i
26 | Cc1ccc(SCCC(=O)Nc2cccnc2)cc1 | i | i | i | i
27 | C[C@H]1CN([C@@H](C)CO)C(=O)Cc2cc(NC(=O)CCC(F)(F)F)ccc2O[C@H]1CN(C)C | i | i | i | i
28 | Cc1ccc(-n2c(C)nnc2SCC(=O)Nc2ccc(C)cc2Br)cc1 | i | i | i | i
29 | O=C1c2ccccc2C(=O)N1C1CCN(Cc2ccc(OCCO)cc2)CC1 | i | i | i | i
30 | CC(C)NC(=O)Nc1ccc2c(c1)C(=O)N([C@@H](C)CO)C[C@@H](C)[C@@H](CN(C)C)OCCCC[C@@H](C)O2 | i | i | i | i
31 | Cn1c(SCC(=O)c2cc(C(C)(C)C)c(O)c(C(C)(C)C)c2)nnc1-c1cccs1 | i | i | i | i
32 | COc1ccc(Nc2ncnc3ccc(OC)cc23)cc1 | i | i | i | i
33 | O=C(CSc1ncn[nH]1)Nc1nsc(-c2ccc(Cl)cc2)n1 | i | i | i | i
34 | C[C@H]1CCCCO[C@@H](CN(C)S(=O)(=O)c2ccccc2)[C@@H](C)CN([C@@H](C)CO)C(=O)c2cc(N(C)C)ccc2O1 | i | i | i | i
35 | C[C@@H]1CN([C@H](C)CO)C(=O)c2cccc(NS(=O)(=O)c3cccs3)c2O[C@H]1CN(C)Cc1ccc(-c2ccccc2)cc1 | i | i | i | i
36 | C[C@H](CO)N1C[C@H](C)[C@@H](CN(C)S(=O)(=O)c2ccc(F)cc2)Oc2c(NC(=O)NC3CCCCC3)cccc2C1=O | / | i | i | i
37 | CCCCCc1ccc(/C=C/C(=O)Nc2ccccc2C(=O)O)cc1 | i | + | i | i
38 | O=C(Nc1ccc(Cc2ccc(O)c(NC(=O)c3ccccc3F)c2)cc1O)c1ccccc1F | i | i | i | i
39 | CN1C(=O)c2ccccc2-n2c(nc3ccccc3c2=O)[C@@]12O[C@H]2c1ccccc1 | i | i | i | i
40 | C[C@@H]1CN([C@H](C)CO)C(=O)Cc2cc(NC(=O)CCN3CCOCC3)ccc2O[C@H]1CN(C)Cc1ccncc1 | i | i | i | i
41 | COc1ccc(C(=O)C(C)Oc2ccc(NC(=O)c3cccc(OC)c3)cc2)cc1 (configuration not stated) | i | i | i | i
42 | C[C@H](CO)N1C[C@H](C)[C@H](CN(C)Cc2ccc(C(=O)O)cc2)Oc2c(cccc2N(C)C)C1=O | i | i | i | i
43 | CCn1c2ccccc2c2cc(NC(=O)COc3ccc([N+](=O)[O-])cc3)ccc21 | i | i | i | i
44 | CCCNc1ncnc2ccc(Br)cc12 | i | i | i | i
45 | O=C(CSc1nc(-c2ccccc2)cc(=O)[nH]1)Nc1cc(C(F)(F)F)ccc1Cl | i | i | i | i
46 | COC(=O)c1cc(OC)c(OC)cc1NC(=O)C1c2ccccc2Oc2ccccc21 | i | i | i | i
47 | C[C@H](CO)N1C[C@H](C)[C@@H](CN(C)CC2CC2)Oc2ccc(NS(=O)(=O)c3cccs3)cc2CC1=O | i | i | i | i
48 | CCOC(=O)C1C(=O)C(=O)Nc2ccccc21 (configuration not stated) | i | i | i | i
49 | Cc1ccc(C(C)C)cc1OCC(O)Cn1c(C)nc2ccccc21 (configuration not stated) | i | i | i | i
50 | C[C@@H]1CCCCO[C@@H](CN(C)S(=O)(=O)c2ccccc2)[C@@H](C)CN([C@@H](C)CO)C(=O)c2cc(NS(C)(=O)=O)ccc2O1 | i | i | i | i
51 | COc1cc(C2Oc3c(OC)cc(CCCO)cc3C2CO)ccc1O[C@H]1O[C@H](C)[C@@H](O)[C@H](O)[C@@H]1O (some centres not stated) | i | i | i | i
52 | CC1(C)CC(O)CC2(C)OC(=O)C=C12 (configuration not stated) | / | i | i | i
53 | C[C@@H]1CN([C@H](C)CO)C(=O)c2cc(NC(=O)Cn3cnnn3)ccc2O[C@@H]1CN(C)Cc1ccc2c(c1)OCO2 | / | i | i | i
54 | C[C@@H]1CN([C@@H](C)CO)C(=O)Cc2cc(NC(=O)C3CC3)ccc2O[C@@H]1CN(C)S(=O)(=O)c1cn(C)cn1 | i | i | i | i
55 | Cc1noc(C)c1S(=O)(=O)N(C)C[C@@H]1Oc2ccc(NS(=O)(=O)c3cccs3)cc2C(=O)N([C@@H](C)CO)C[C@@H]1C | i | i | i | i
56 | C[C@@H]1CN([C@H](C)CO)C(=O)Cc2cc(N(C)C)ccc2O[C@H]1CN(C)S(=O)(=O)c1ccccc1 | i | i | i | i
57 | COc1cc2c(cc1O)C1(Cc3ccc4c(c3C1=O)OCO4)N(C)CC2 (configuration not stated) | / | i | i | i
58 | Clc1ccc(Cn2ncc3c(NCCN4CCOCC4)ncnc32)cc1 | i | i | i | i
59 | COc1cc(C=O)cc2c1[nH]c1ccccc12 | i | i | i | i
60 | C[C@H](CO)N1C[C@H](C)[C@@H](CN(C)Cc2ccccc2)Oc2ccc(NS(C)(=O)=O)cc2C1=O | + | i | i | i
61 | COc1ccc(CN(C)C[C@@H]2OCCCC[C@H](C)Oc3ccc(NC(=O)Nc4c(C)noc4C)cc3C(=O)N([C@@H](C)CO)C[C@@H]2C)cc1 | i | i | i | i
62 | C[C@@H]1O[C@@H](OC[C@H]2O[C@@H](Oc3ccc(O)cc3)[C@H](O)[C@@H](OC(=O)c3ccc(O)cc3)[C@@H]2O)[C@H](O)[C@H](O)[C@H]1O | i | i | i | i
63 | C[C@@H]1CCCCO[C@H](CN(C)C(=O)Nc2ccccc2)[C@@H](C)CN([C@@H](C)CO)C(=O)c2cc(NC(=O)C3CCCCC3)ccc2O1 | i | i | i | i
64 | COc1c(CCC(=O)O)c(O[C@@H]2O[C@H](CO)[C@@H](O)[C@H](O)[C@H]2O)cc2occc12 | i | i | i | i
65 | COc1ccc(S(=O)(=O)N(C)C[C@@H]2Oc3c(NC(=O)Nc4cccc5ccccc45)cccc3C(=O)N([C@H](C)CO)C[C@@H]2C)cc1 | i | i | i | i
66 | CC(=O)NCCCC[C@@H]1NC(=O)[C@H]2C[C@@H](C(=O)NCCCCCCNC(=O)CS)[C@@H](c3ccc(O)cc3)N2C1=O | i | i | i | i
67 | Cc1ccc(NC(=O)CN(c2ccc(Cl)c(C(F)(F)F)c2)S(C)(=O)=O)cc1 | i | i | i | i
68 | COc1ccc(NC(=O)Nc2cccc3c2O[C@H](CN(C)C(=O)Nc2ccc(F)cc2)[C@@H](C)CN([C@H](C)CO)C3=O)cc1 | / | i | i | i
69 | CC1CCCC2=CC(OC2=O)C(C)(C)CCC1=O (configuration not stated) | i | i | i | i
70 | Cc1noc(C)c1S(=O)(=O)Nc1cccc2c1O[C@H](CN(C)Cc1ccc(Cl)c(Cl)c1)[C@H](C)CN([C@@H](C)CO)C2=O | i | i | i | i
71 | C[C@@H]1CN([C@@H](C)CO)C(=O)c2cc(NC(=O)C3CC3)ccc2O[C@H]1CN(C)S(=O)(=O)c1ccc(F)cc1 | i | i | i | i
72 | C[C@@H]1CN([C@H](C)CO)C(=O)c2cccc(NS(=O)(=O)c3cn(C)cn3)c2O[C@@H]1CN(C)Cc1ccc(C(F)(F)F)cc1 | i | i | i | i

New compounds follow:
No. | molecule | ID4 binder | c-Myc SMM | p53 mut binder | STAT3 binder
73 | CC/C=C\C/C=C\C/C=C\C/C=C\C/C=C\C/C=C\CCC(=O)O | i | i | i | i
74 | Cc1n[nH]c(C)c1C(=O)CC1(O)C(=O)Nc2ccc(Br)cc21 (configuration not stated) | i | i | i | i
75 | CCCCCCNC(=O)Nc1ccc(S(=O)(=O)Nc2ccc(CCNCC(O)COc3ccc(O)cc3)cc2)cc1 (configuration not stated) | i | i | i | i
76 | C[C@@H]1CCCCO[C@@H](CN(C)Cc2ccc(Cl)c(Cl)c2)[C@H](C)CN([C@@H](C)CO)C(=O)c2cc(NS(=O)(=O)c3ccc(F)cc3)ccc2O1 | / | i | i | i
77 | COc1ccc(S(=O)(=O)Nc2ccc3c(c2)C(=O)N([C@@H](C)CO)C[C@@H](C)[C@@H](CN(C)CC2CC2)O3)cc1 | i | i | i | i
